Mtb growth: Confirmatory growth inhibition assay against Mycobacterium tuberculosis H37Rv, potency (AID 1949). most inactive calls were filed without a number and no value below 0 was filed. one-dose inhibition, % at 10 µg/mL; IC50 in µg/mL for titrated hits. hit rate 1.6% among 100,000;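 active = confirmed in a dose series; inconclusive = about 50% or more but not retested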;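 note: bacteria grown 7 days with compound before Alamar blue readout; 0% = untreated bacteria and 100% = reference antibiotic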
* marks the source's active call; other numbers are inactive results; i = inactive; ? = inconclusive. These rows are one share of the data. The share of hits here may be higher or lower than overall.

SMILES	Mtb growth
CCOC(=O)CNC(=O)c1c(C)noc1C	i
COc1ccc(NC(=O)c2cnc(Nc3nc4ccccc4o3)nc2C)cc1	2.4%
COc1cc(/C=C/c2cc(=O)c3ccccc3[nH]2)c(O)c([N+](=O)[O-])c1	i
N#Cc1cc(NC(=O)c2ccc(Cl)cc2)c(=O)n2c1sc1ccccc12	i
O=C(Nc1nncs1)c1cc(-c2cccs2)nc2ccccc12	i
COC(=O)Nc1ncc(CN2CCCCC2)s1	i
Cc1ccc(C(=O)N(CC(C)C)CC(C)C)cc1C	i
Cn1c(SCC(=O)Nc2ccc(C(=O)O)cc2)nnc1-c1ccc(Br)cc1	i
O=C(Nc1ccc(I)cc1F)c1cccnc1	i
COc1ccc(NC(=O)Nc2cccc(Cl)c2Cl)c(C)c1	4.2%
Cc1ccc(NC(=O)COc2ccccc2C)cc1F	i
COc1ccccc1NC(=O)CN(c1cc(C)cc(C)c1)S(=O)(=O)c1ccc(OC)c(OC)c1	i
CCOc1ccccc1C(=O)Nc1cccc(C)n1	0.4%
COc1ccccc1C(=O)NC(=S)Nc1cccc(Cl)c1N1CCCC1	i
COc1ccc(N(CC(=O)N2CCc3ccccc3C2)S(=O)(=O)c2ccc(F)cc2)cc1	i
CCCCc1ccc(NC(=O)C2CCN(S(=O)(=O)c3ccc(OC)c(C)c3)CC2)cc1	i
Cc1cc(C)n(-c2nc3sc4c(c3c(=O)[nH]2)CCCC4)n1	24.4µg/mL*
N#Cc1c(NC(=O)c2ccc3c(c2)OCCO3)sc2c1CCC2	i
CC(=O)Nc1ccc2nc(NC(=S)NC(=O)c3ccc(-c4ccccc4[N+](=O)[O-])o3)sc2c1	i
Cn1nnnc1SCC(=O)n1c2c(c3c1CCCC3)CCCC2	i
Cn1c(=O)c2c(ncn2CC(=O)N2CCN(c3cccc(Cl)c3)CC2)n(C)c1=O	i
O=C(CSc1nc2sc3c(c2c(=O)n1-c1ccccc1)CCCC3)Nc1nccs1	i
O=C(NCCn1cc(Cl)cn1)Nc1cccc(Cl)c1Cl	i
C/C(=C1/SC(N2CC(C)OC(C)C2)=NC1=O)c1ccccc1 (centres undefined)	i
CS(=O)(=O)N(CC(=O)Nc1ccc(F)cc1F)c1cc(C(F)(F)F)ccc1Cl	5.3%
CC(=O)CCS(=O)(=O)c1ccc(Cl)c(Cl)c1	i
COc1ccccc1NC(=O)CSc1nnc2c3ccccc3n(CCc3ccccc3)c2n1	0.3%
CCc1ccc(N2CC(C(=O)Nc3cc(C(F)(F)F)ccc3Cl)CC2=O)cc1 (centres undefined)	i
CC(C)C(=O)Nc1cccc(-c2cn3ccsc3n2)c1	i
O=C(CSc1n[nH]c(-c2cccnc2)n1)Nc1ccnc2ccccc12	i
O=C(NCCCc1ccccc1)c1ccccc1[N+](=O)[O-]	1.4%
Cc1ccc(SCCC(=O)Nc2ccc(S(=O)(=O)N3CCOCC3)cc2)cc1	i
O=C1C2C3c4ccccc4C(c4ccccc43)C2C(=O)N1C1=NCCS1 (centres undefined)	i
Cn1nnnc1SCC(=O)Nc1ccc(F)cc1	2.3%
O=C(O)c1cccc2c1C(=O)N(C1CCCCC1)C2	i
COc1ccc(CCNC(=O)CSc2nnc(C)s2)cc1OC	0.5%
COc1cccc(C(=O)NC(c2cccc([N+](=O)[O-])c2)c2c(O)ccc3ccccc23)c1 (centres undefined)	i
O=C(Nc1ncc(Cc2ccc(F)cc2)s1)C(c1ccccc1)c1ccccc1	4.9%
O=C(CSc1nc(O)cc(=O)[nH]1)C12CC3CC(CC(C3)C1)C2	i
CCc1ccc(N(CC(=O)Nc2ccc(C)c(Cl)c2)S(C)(=O)=O)cc1	i
N#Cc1ccccc1-c1ccccc1C(=O)N1CCCCC1	i
O=C(NC1(C(F)(F)F)NC(=O)N(c2ccc(Cl)cc2)C1=O)c1ccccc1F (centres undefined)	i
CS(=O)(=O)N(CC(=O)N1CCOCC1)c1cccc(C(F)(F)F)c1	i
COc1ccc(-c2cc(C(=O)Nc3ccncc3)c3ccccc3n2)c(OC)c1	4.2%
CN(c1ccc(C(=O)N2CCN(Cc3ccc4c(c3)OCO4)CC2)cc1)S(=O)(=O)c1ccccc1	i
Cc1ccc(C(=O)NC(=S)Nc2ccc(C(=O)O)c(Cl)c2)cc1	i
CC(=O)Nc1ccc(NC(=O)COc2ccc(S(=O)(=O)NC(C)c3ccccc3)cc2)cc1 (centres undefined)	i
COc1ccc(OC(C)C(=O)NCc2ccc(F)cc2)cc1 (centres undefined)	i
Cc1ccc(C)c(N2CCN(C(=O)C3CCC3)CC2)c1	i
Clc1cccc(Cl)c1CNc1ccc(CNc2ncn[nH]2)cc1	17.5%
The list goes on.
SMILES	Mtb growth
COc1ccc(S(=O)(=O)NCC(=O)Nc2cccc(C(F)(F)F)c2)cc1OC	i
O=C1c2ccccc2C(O)(c2ccccc2)N1c1ccc(Cc2ccncc2)cc1 (centres undefined)	i
O=C(CSc1nnc(-c2ccco2)n1-c1ccccc1)N1CCCc2ccccc21	5.2%
Cc1ccc(NC(=O)C2CC(=O)N(C3CCCCC3)C2)cc1C (centres undefined)	i
CN(c1ccccc1C(=O)NCCSc1ccc(Cl)cc1)S(=O)(=O)c1ccccc1	i
CC(C)(C)Nc1nc(SCc2ccccc2)nc(N2CCOCC2)n1	8.3%
O=C(Nc1cc(C(F)(F)F)ccc1N1CCCCC1)c1ccccc1	i
O=C(NCCCCc1ccccc1)C1c2ccccc2Oc2ccccc21	i
O=C(c1ccc(CSCc2ccccc2)cc1)N1CCN(c2ccccc2)CC1	i
COc1ccc(S(=O)(=O)N2CCN(c3ccccc3OC)CC2)cc1OC	i
NC(=O)c1cc(Oc2ccc(Br)cc2)nc2ccccc12	i
COc1ccc(C(=O)Nn2c(CCC(=O)O)ccc2-c2ccc(F)cc2)cc1OC	i
Cc1cc(NS(=O)(=O)c2ccc(Br)cc2)c(C)cc1O	0.9%
COc1ccc(OC)c(C2NC(=S)NC(C)=C2C(=O)Nc2cc(C)cc(C)c2)c1 (centres undefined)	i
CC(=O)c1c(C)oc2ccc(N(C(C)=O)S(=O)(=O)c3cccc4cccnc34)cc12	i
Cc1ccc(Nc2ncc3c(n2)CC(C)(C)CC3=O)cc1	i
CC(C)NCc1nc(-c2ccc(Cl)cc2)no1	i
O=C(Nc1ccc(-c2ccc([N+](=O)[O-])cc2)cc1)c1ccccc1Br	i
COc1ccc(C)cc1N(CC(=O)Nc1ccccc1-c1ccccc1)S(C)(=O)=O	0.2%
c1coc(-c2nnc3sc(-c4csc5c4CCCC5)nn23)c1	41.0%
COc1ccc(C(=O)NC(=S)N2CC(C)OC(C)C2)cc1OC (centres undefined)	i
COc1ccc(-c2cc3ccccc3oc2=O)cc1NC(=O)c1ccc(Br)o1	i
C#CCOc1c(Cl)cc(C2NC(=O)NC(C)=C2C(=O)Nc2ccccc2)cc1OCC (centres undefined)	1.1%
CCOc1ccc2nc(SC3CC(=O)N(c4ccc(C)cc4C)C3=O)nc(C)c2c1 (centres undefined)	i
CCCOc1ccccc1N1C(=O)C2C3c4ccccc4C(C(=O)O)(c4ccccc43)C2C1=O (centres undefined)	i
Cc1ccc(S(=O)(=O)N(C)c2ccc(C(=O)Nc3cc(Cl)cc(Cl)c3)cc2)cc1	i
Cc1cc2[nH]c(=S)[nH]c2c(Br)c1C	i
CCOC(=O)C1CCCN(C(=O)CC(c2ccccc2)c2ccccc2)C1 (centres undefined)	9.6%
O=C(CC(NCCO)C(=O)O)Nc1ccc(Cl)cc1Cl (centres undefined)	i
COc1ccc(CNC(=O)CCCN2C(=O)c3ccccc3C2=O)cc1	i
O=C(NCc1nc(-c2ccc(Cl)cc2)no1)c1cccc(F)c1	i
COc1ccc(C(C)C)cc1S(=O)(=O)Nc1c(C)cc(C)cc1C	5.4%
CS(=O)(=O)Nc1ccc(S(=O)(=O)NCCc2ccccc2)cc1	i
N#CN/C(=N\S(=O)(=O)c1ccccc1)c1ccccc1	i
Cc1c(NC(=O)C2CCCO2)cccc1[N+](=O)[O-] (centres undefined)	i
Cc1ccc(C(=O)N/C(N)=N/c2nc3ccccc3o2)cc1	1.2%
COc1ccc(CCNC(=O)C2CCN(C(=O)c3cccs3)CC2)cc1	i
COc1cccc(NC(=O)C(C)Oc2cccc(Cl)c2)c1 (centres undefined)	1.0%
COc1ccc(Br)cc1C(=O)NC(=S)Nc1sc2c(c1C(N)=O)CCC2	i
C=CCSc1nc(N)c(C(=O)Nc2ccccc2)cc1C#N	1.7%
COc1ccc(NC(=O)c2c(NC(=O)c3cccc(F)c3)sc(-c3ccccc3)c2C)cc1	i
Cc1noc(C)c1C(=O)NC1=NCCS1	i
CCNC(=S)N1CCN(c2ccccc2OC)CC1	i
S=C(NCc1ccco1)Nc1ccc(N2CCOCC2)cc1	13.3%
COc1cc2c(cc1OC)C(C)N(C(=O)c1ccco1)CC2 (centres undefined)	i
CC1=C(C(=O)Nc2ccccc2)C(c2ccccc2Cl)NC(=O)N1 (centres undefined)	i
O=c1c2ccccc2ncn1CCCOc1ccc(Cl)cc1Br	i
COC(=O)c1c(NC(=O)c2ccc3c(c2)OCO3)sc2c1CCCCCC2	i
CCC(=O)Nc1ccc(Cl)c(NC(=S)NC(=O)COc2ccccc2)c1	i
CC1CN(S(=O)(=O)c2ccccc2)CC(C)O1 (centres undefined)	1.6%

A section taken from the entries so far, for reference:
SMILES	Mtb growth
COc1ccc(CNC(=O)CCCN2C(=O)c3ccccc3C2=O)cc1	i
O=C(NCc1nc(-c2ccc(Cl)cc2)no1)c1cccc(F)c1	i
COc1ccc(C(C)C)cc1S(=O)(=O)Nc1c(C)cc(C)cc1C	5.4%
CS(=O)(=O)Nc1ccc(S(=O)(=O)NCCc2ccccc2)cc1	i
N#CN/C(=N\S(=O)(=O)c1ccccc1)c1ccccc1	i
Cc1c(NC(=O)C2CCCO2)cccc1[N+](=O)[O-] (centres undefined)	i
Cc1ccc(C(=O)N/C(N)=N/c2nc3ccccc3o2)cc1	1.2%
COc1ccc(CCNC(=O)C2CCN(C(=O)c3cccs3)CC2)cc1	i
COc1cccc(NC(=O)C(C)Oc2cccc(Cl)c2)c1 (centres undefined)	1.0%
COc1ccc(Br)cc1C(=O)NC(=S)Nc1sc2c(c1C(N)=O)CCC2	i
C=CCSc1nc(N)c(C(=O)Nc2ccccc2)cc1C#N	1.7%
COc1ccc(NC(=O)c2c(NC(=O)c3cccc(F)c3)sc(-c3ccccc3)c2C)cc1	i
Cc1noc(C)c1C(=O)NC1=NCCS1	i
CCNC(=S)N1CCN(c2ccccc2OC)CC1	i
S=C(NCc1ccco1)Nc1ccc(N2CCOCC2)cc1	13.3%
COc1cc2c(cc1OC)C(C)N(C(=O)c1ccco1)CC2 (centres undefined)	i
CC1=C(C(=O)Nc2ccccc2)C(c2ccccc2Cl)NC(=O)N1 (centres undefined)	i
O=c1c2ccccc2ncn1CCCOc1ccc(Cl)cc1Br	i
COC(=O)c1c(NC(=O)c2ccc3c(c2)OCO3)sc2c1CCCCCC2	i
CCC(=O)Nc1ccc(Cl)c(NC(=S)NC(=O)COc2ccccc2)c1	i
CC1CN(S(=O)(=O)c2ccccc2)CC(C)O1 (centres undefined)	1.6%

The list continues.
SMILES	Mtb growth
CCOc1cc(C2NC(=S)NC(C)=C2C(=O)NCc2ccccc2)c(Br)cc1O (centres undefined)	i
COC(=O)c1ccc(C2NC(=O)NC(C)=C2C(=O)OCc2ccccc2)cc1 (centres undefined)	i
COc1ccc(CC(=O)Nc2ccc(C)c(Cl)c2)cc1OC	i
COc1cc(NS(=O)(=O)c2ccc(NC(C)=O)cc2)ncn1	i
O=C(Nc1ccc(Cl)c(Cl)c1)c1ccc(Cl)cc1Cl	5.19µg/mL*
O=C(Nc1ccc(N2CCCC2)cc1)c1ccccc1Cl	?
O=C(Cc1c(F)cccc1Cl)NCCN1CCOCC1	i
COc1c(S(=O)(=O)N2CCN(c3ccc(C)c(Cl)c3)CC2)ccc(Cl)c1Cl	i
Cc1ccc(-c2nn(CC(=O)NCc3ccccc3)c(=O)c3ccccc23)cc1	i
Cc1cccc2c1NC(c1ccc([N+](=O)[O-])cc1)C1CC=CC21 (centres undefined)	i
CCC1(C)Cc2ccccc2-c2[nH]c(=S)n(Cc3ccccc3)c(=O)c21 (centres undefined)	i
COc1cc(SC)ccc1C(=O)N1CCN(Cc2ccccc2)CC1	1.4%
CCOc1ccccc1NC(=O)C1CC(=O)N(c2ccc(OCc3ccc(Cl)cc3)cc2)C1 (centres undefined)	4.0%
S=c1[nH]nc(COc2cccc(Cl)c2)n1Cc1ccccc1	i
COc1c(C)cc(Br)cc1C(=O)NC(=S)Nc1sc2c(c1C(N)=O)CCCCC2	i
CC(C)c1ncc(C(O)(c2ccccc2)c2ccccc2)n1C	i
CC(C)CC(=O)Nc1ccc(S(=O)(=O)Nc2nccs2)cc1	i
CCCC(=O)c1ccc(N2CCCCCC2)c(F)c1	i
COc1ccc(N(CC(=O)Nc2ccccc2C(=O)NC2CCCCC2)S(C)(=O)=O)c(OC)c1	i
CCN(CC)C(=O)c1ccc2ccccc2n1	i
CC1CCN(S(=O)(=O)c2ccc(NC(=O)Cc3cccs3)cc2)CC1	3.1%
CCOc1ccc(OCC)c(C2C(C#N)=C(N)N(c3cccc4ccccc34)C3=C2C(=O)CCC3)c1 (centres undefined)	i
Cc1ccnn2c(-c3ccccc3)c3c(=O)n(C)c(=O)n(C)c3c12	i
CCOC(=O)C1CCN(C(=O)COc2ccc(C)cc2C)CC1	1.8%
O=C(Nc1ccn(Cc2ccccc2)n1)c1ccc(Br)cc1	i
CC1CN(Cc2nc3c(c(=O)n(C)c(=O)n3C)n2CCc2ccccc2)CC(C)O1 (centres undefined)	i
O=C(N1CCN(c2cccc(C(F)(F)F)c2)CC1)C12CC3CC(CC(C3)C1)C2	12.0%
O=C(Cc1cccs1)N1CCN(c2ccccn2)CC1	i
CCc1cc2c(=O)c(-c3ccc4c(c3)OCO4)coc2cc1OC(C)=O	i
CC(=O)OCC#CCSc1nnc(-c2ccc(Br)cc2)o1	<0.1µg/mL*
CCOC(=O)c1ccc(NC(=O)CCOc2ccc(OC)cc2)cc1	23.2%
Cc1cc(Nc2cccc3ccccc23)c2cc(Cl)ccc2n1	i
